# High-throughput results from PubChem BioAssay.
# E coli growth = blocks Escherichia coli growth; 330,000 tested, 0.21% active; OD600, 23 h; stronger effect = lower value; OD600 absorbance (no concentration beside the values); AID 1053175;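 active = OD600 absorbance below the run mean of sample wells minus 3.6 SD, in any replicate, cut at about 0.56 in these data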;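 note: stock transfer was 300 nL into about 60 µL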
# UCH37 inh = human UCH37 deubiquitinating enzyme inhibition; purified proteasome/UCH37, Ub-AMC cleavage fluorescence; inhibition, % (concentration not given with the values); 330,000 tested, 0.33% active; AID 588478;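 active = mean of two replicates above 20%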;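 note: 0% = compound-free wells with enzyme and 100% = wells lacking proteasome; stock transfer was 100 nL into about 20 µL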
# Target sequence (Q9Y5K5 whole entry, looked up): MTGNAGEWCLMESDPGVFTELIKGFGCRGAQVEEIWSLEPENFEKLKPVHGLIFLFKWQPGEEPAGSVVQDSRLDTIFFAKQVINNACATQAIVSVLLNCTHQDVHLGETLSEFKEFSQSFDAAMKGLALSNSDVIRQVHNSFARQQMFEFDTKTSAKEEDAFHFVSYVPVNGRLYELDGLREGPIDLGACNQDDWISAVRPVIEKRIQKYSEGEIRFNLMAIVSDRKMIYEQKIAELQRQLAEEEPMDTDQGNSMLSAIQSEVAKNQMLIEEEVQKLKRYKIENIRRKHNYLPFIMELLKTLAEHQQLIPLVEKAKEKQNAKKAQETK
#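 Assay system: Proteasome-bound UCH37. Buffer or medium: pH 7.4 Tris-HCl (50 mM) with ovalbumin, ATP-MgCl2, DTT. Incubation: 30 min preincubation with enzyme, 25 min cleavage at room temperature. Measured by: fluorescence, ex 355 nm, em 460 nm. Read-out basis: percent inhibition. Control set: wells without proteasome as full block, compound-free enzyme plus substrate as uninhibited.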
# B2AR ag = human beta-2 adrenergic receptor agonism by FAP; P07550; Am2.2-beta2AR cells, FAP receptor internalization, flow cytometry; reference of the scale not given here; response, % (test concentration not listed); 340,000 tested, 0.43% active;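 active = response above a set limit, near 3 SD of response in nonfluorescent compounds, cut at about 42% in these data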;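 note: stock transfer was 100 nL into about 11 µL; a reference agonist was the positive control; negative values mostly stem from fluorescent compounds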
# FGF22 binding = FGF22 (human) thermal shift binding | Q9HCT0 | recombinant FGF22 thermal shift, SYPRO orange fluorescence; percent of sucrose octasulfate shift, DMSO zero | calls only at 9.99 µM | 340,000 tested, 1.5% active;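 active = melting point raised past a set limit in the mean and every replicate; three in four hits are not shown here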
# HNF4A DNA FP = change in binding of human HNF4 alpha to DNA | P41235 | HNF4a-FITC DNA binding, fluorescence polarization, 1 h | activity change, % at 10 µM | 360,000 tested, 0.3% active | AID 1224865; in the data active = activity change above about 30%, passing the limit was not always enough;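 note: controls were the assay level and a saturating level of protein; the project sought stronger binding though the title names inhibitors; some compounds called inactive have numbers as strong as hits; positive values seem to mean higher polarization but the record does not say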
# Target sequence (P41235 whole entry, looked up): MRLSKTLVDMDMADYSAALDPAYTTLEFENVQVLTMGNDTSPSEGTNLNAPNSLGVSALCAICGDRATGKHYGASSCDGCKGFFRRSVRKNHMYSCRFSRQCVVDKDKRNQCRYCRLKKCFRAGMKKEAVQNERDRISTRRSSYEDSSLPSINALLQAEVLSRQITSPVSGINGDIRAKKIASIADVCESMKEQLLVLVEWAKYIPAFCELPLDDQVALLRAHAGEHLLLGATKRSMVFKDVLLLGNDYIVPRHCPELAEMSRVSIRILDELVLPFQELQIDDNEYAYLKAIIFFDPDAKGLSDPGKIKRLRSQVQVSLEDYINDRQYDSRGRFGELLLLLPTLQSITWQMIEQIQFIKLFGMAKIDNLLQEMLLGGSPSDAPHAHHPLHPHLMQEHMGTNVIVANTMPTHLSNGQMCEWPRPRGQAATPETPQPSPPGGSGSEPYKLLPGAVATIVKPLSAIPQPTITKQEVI
# ALR inh = inhibitors of human sulfhydryl oxidase ALR | purified ALR, DTT oxidation, H2O2 HRP-luminol luminescence | 290,000 tested, 3.8% active | inhibition, % (no concentration beside the values) | P55789;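 active = mean and each replicate at 75% or more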;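 note: stock transfer was 7.5 nL into about 7.5 µL; 0% = neutral wells and 100% = wells with inactivated enzyme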
# Target sequence (P55789 whole entry, looked up): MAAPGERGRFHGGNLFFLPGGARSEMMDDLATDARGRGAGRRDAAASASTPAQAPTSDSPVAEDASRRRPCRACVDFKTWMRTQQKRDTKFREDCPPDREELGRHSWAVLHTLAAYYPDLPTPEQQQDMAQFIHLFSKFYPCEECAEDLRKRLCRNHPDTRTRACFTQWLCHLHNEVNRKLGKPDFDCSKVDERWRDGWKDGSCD
# rRNA inh HTS = inhibits bacterial ribosomal RNA function over humanized ribosomes. E. coli WT GFP vs humanized-ribosome RFP mutants, fluorescence, 24 h; stronger effect = lower value; DMSO median 0, no signal -100. 350,000 tested, 1.6% active. GFP signal change (wild-type ribosome), % (concentration not given with the values);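 active = significant combined selectivity score with lowered wild-type GFP, culture density cut under 30%, mutant RFP and density less affected; inactive = any of these conditions unmet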; note: one replicate is shown; some compounds called inactive have numbers as strong as hits
# rRNA inh HTS OD600 = also measured in rRNA inh HTS; calls as there; OD600 change, %; measured here: OD600 growth;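 optical density of the mix in the first replicate; 0 = DMSO median and -100 = no signal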
# rRNA inh HTS RFP = further read-out of rRNA inh HTS, marked with its call; RFP signal change, %; measured here: RFP humanized mutant strains;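 first replicate; 0 = DMSO median and -100 = no signal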
# The depositor's hits bear a star; i = inactive; . = no result given.
SMILES,E coli growth,UCH37 inh,B2AR ag,FGF22 binding,HNF4A DNA FP,ALR inh,rRNA inh HTS,rRNA inh HTS OD600,rRNA inh HTS RFP
COc1ccc(/C=C/C(=O)N2CCCc3ccccc32)cc1,0.72,3.6,-5,i,3.6,7,.,.,.
CCC(C)(C)c1nnc(NC(=O)c2cccc([N+](=O)[O-])c2)s1,0.68,2.3,-4,i,1.7,1,4,-1,-0.1
O=C(/C=C/c1ccco1)Nc1ccc(Oc2ccc(Cl)cc2)cc1,.,3.9,-6,.,-0.5,3,.,.,.
O=C(Cn1cnc2c(nnn2-c2cccc(Cl)c2)c1=O)NCc1ccccc1,0.76,-0.7,-9,i,2.4,-3,2,8,-5.8
O=C(O)c1cccc(N2C(=O)c3cccnc3C2=O)c1,0.69,3.8,-3,.,-3.1,.,.,.,.
CN(C)c1ccc(/C=N/NC(=O)c2nonc2N)cc1[N+](=O)[O-],.,.,12,i,3.5,38,0,-2,1.2
Cc1cccc(C)c1OCC(=O)Nc1oc(-c2ccccc2)c(-c2ccccc2)c1C#N,0.74,-2.9,6,.,-0.9,-2,.,.,.
O=C(CN1C(=O)C2(OCCO2)c2ccccc21)c1ccc(Br)cc1,0.69,3.2,2,i,2.5,-24,.,.,.
O=C(CSC1=NCCS1)Nc1ccc2ccccc2c1,0.74,7.7,-2,i,0.2,99*,6,0,-0.9
O=C(Cc1ccc(S(=O)(=O)N2CCOCC2)s1)N1CCN(S(=O)(=O)c2cccc([N+](=O)[O-])c2)CC1,0.59,1.8,-1,i,1.6,-5,12,2,4.3
O=C(Nc1ccc(F)c(Cl)c1)C1Cc2c(-c3ccco3)ccnc2O1 (configuration not stated),.,.,.,i,1.6,.,-32,-33,-2.3
CC1C(=O)Nc2ccccc2N1C(=O)c1c(F)cccc1F (configuration not stated),0.73,2.6,8,i,0.9,-1,2,8,0.4
O=C(Nc1cc(S(=O)(=O)N2CCCCC2)ccc1Cl)C1=NN(c2ccccc2)C(=O)CC1,0.68,-23,2,i,-5.0,-3,17,13,-0.1
CCC(=O)N1CCc2cc(S(=O)(=O)NC(C(=O)Nc3cccc(C)n3)C(C)C)ccc21 (configuration not stated),0.7,3.7,-1,.,-3.7,1,.,.,.
CN1CCN(CC(O)COc2ccc(S(=O)(=O)N3CCOCC3)cc2)CC1 (configuration not stated),0.69,0.6,-1,i,-0.2,0,4,6,-0.3

# Record cards (already shown).
# Listed for `CCC(C)(C)c1nnc(NC(=O)c2cccc([N+](=O)[O-])c2)s1` → E coli growth: 0.68; UCH37 inh: 2.3; B2AR ag: -4; FGF22 binding: i; HNF4A DNA FP: 1.7; ALR inh: 1; rRNA inh HTS: 4; rRNA inh HTS OD600: -1; rRNA inh HTS RFP: -0.1
# Listed for `O=C(Nc1ccc(F)c(Cl)c1)C1Cc2c(-c3ccco3)ccnc2O1` (configuration not stated) → E coli growth: .; UCH37 inh: .; B2AR ag: .; FGF22 binding: i; HNF4A DNA FP: 1.6; ALR inh: .; rRNA inh HTS: -32; rRNA inh HTS OD600: -33; rRNA inh HTS RFP: -2.3

# Back to the main list, repeating the two entries before the break.
SMILES,E coli growth,UCH37 inh,B2AR ag,FGF22 binding,HNF4A DNA FP,ALR inh,rRNA inh HTS,rRNA inh HTS OD600,rRNA inh HTS RFP
CCC(=O)N1CCc2cc(S(=O)(=O)NC(C(=O)Nc3cccc(C)n3)C(C)C)ccc21 (configuration not stated),0.7,3.7,-1,.,-3.7,1,.,.,.
CN1CCN(CC(O)COc2ccc(S(=O)(=O)N3CCOCC3)cc2)CC1 (configuration not stated),0.69,0.6,-1,i,-0.2,0,4,6,-0.3
CCOc1ccc(S(=O)(=O)N2CCC(C(=O)NCCc3ccc(S(N)(=O)=O)cc3)CC2)cc1,0.68,2.5,-11,i,4.3,-3,3,7,-3.1
COCCN(C(=O)c1ccc(N(C)S(=O)(=O)c2ccc(C)cc2)cc1)c1c(N)n(CC(C)C)c(=O)[nH]c1=O,0.67,0.9,-4,i,-2.2,.,7,13,-2.3
O=C(Cc1ccccc1)N1CCC(c2nc(-c3ccc(F)cc3)no2)CC1,0.75,0.9,-5,.,-4.1,-3,.,.,.
COc1ccccc1CNC(=O)C(Cc1c[nH]c2ccccc12)NC(=O)OCc1ccccc1 (configuration not stated),0.71,6.7,-3,.,1.3,-2,.,.,.
O=C(CN1C(=O)CCS(=O)(=O)c2ccccc21)NCc1ccccc1,0.72,4.0,-2,.,-10,0,.,.,.
COc1ccc(C(=O)N2CCN(Cc3ccccc3)CC2)cc1[N+](=O)[O-],0.7,2.1,0,i,2.6,-3,0,5,-1.2
COc1ccc(NC(=O)CC2C(=O)N(c3cccc(OC)c3)C(=O)N2CCC(C)C)cc1 (configuration not stated),0.65,-0.9,2,.,4.2,-7,.,.,.
COc1ccc(C(=O)NCCCNC(=O)c2ccccn2)cc1Br,0.69,3.2,6,i,-0.9,-10,9,8,2.2
COc1cccc2cc(S(=O)(=O)c3ccc(C)cc3)/c(=N/NS(=O)(=O)c3ccc(C)cc3)oc12,.,.,-4,i,7.1,-2,20,17,2.7
COc1cc2c(cc1OC)C(c1ccccc1)CC2=O (configuration not stated),0.67,-1.4,-5,i,0.6,.,-10,-23,-4.4
O=C(CN1C(=O)C2CCCCC2C1=O)Nc1cccc(C(F)(F)F)c1 (configuration not stated),0.71,5.1,-5,i,2.0,-4,-15*,-12*,-1.2*
COc1ccc(CNC(=O)CN2C(=O)CSc3ccc(S(=O)(=O)N4CCOCC4)cc32)cc1,0.68,4.1,6,i,0.1,2,-2,3,0.0
O=C(NCCCc1ccccc1)c1ccc([N+](=O)[O-])cc1Cl,0.67,0.0,2,i,0.6,-9,12,18,-1.0
Cc1ccc(OCC(=O)NN2C(=O)c3ccccc3C2=O)c(C)c1,0.66,-1.5,3,.,-0.1,4,.,.,.
O=S(=O)(c1ccc(F)cc1)N1CCN(c2ccccc2)CC1,0.67,0.7,0,.,3.8,38,.,.,.
C/C(=C\C(=S)Nc1ccccc1)Nc1ccc2ccccc2c1,0.7,-22,0,i,5.4,-52,-18,-35,-6.8
O=C(CC(c1ccccc1)c1ccccc1)NCc1cccnc1,0.68,4.0,16,.,-2.8,-4,.,.,.
N#CC(=C=[N-])c1nc2ccccc2nc1-[n+]1cccc(NC(=O)c2cccs2)c1,0.69,5.7,22,i,10,6,11,9,-1.7
C=CCNC(=O)[C@@H]1CSC2c3ccc(OC)c(OC)c3C(=O)N21 (some centres not stated),0.68,-90,-5,i,-2.4,-2,8,14,3.9
N/C(=N/OCc1cccc([N+](=O)[O-])c1)c1nonc1N,.,.,-12,i,0.0,0,3,-7,-0.6
CC1(C)Cc2cccc(OCC(=O)O)c2O1,0.74,-0.5,15,.,-0.9,-7,.,.,.
COc1ccc(Cc2c(-c3ccc(C)cc3)nc3c(C)cc(Br)cn23)c(C)c1,.,.,.,i,18,.,-2,0,36
COc1ccc(N2C(=O)C3CC(C)=C(C)CC3C2=O)c(OC)c1 (configuration not stated),0.69,3.0,10,.,-1.6,-2,.,.,.
O=c1c2c(nc3cc(-c4cccc(Cl)c4)[nH]n13)CCCC2,0.68,0.3,12,i,0.9,1,13,15,4.1
Cc1cccc(NC(=O)CCC(=O)c2cccs2)n1,0.69,3.7,-3,i,-1.9,-22,1,1,0.2
CC(C)(C)C(=O)C[n+]1cccc(C(N)=O)c1,0.68,3.0,0,i,1.3,.,10,15,0.5
O=S(=O)(Nc1ccccc1N1CCCCC1)c1ccc(F)cc1,0.71,3.6,3,i,0.0,.,-34,-29,-9.4
O=C(Nc1ccc(Oc2ccc(NC(=O)Nc3ccc([N+](=O)[O-])cc3)cc2)cc1)Nc1ccc([N+](=O)[O-])cc1,0.53,11,-14,i,2.0,.,-17,-17,0.1
COC(=O)c1ccc(COC(=O)CNC(=O)c2ccco2)cc1,0.73,-0.3,5,.,2.2,.,.,.,.
O=C(O)CCn1nnc(-c2ccccc2)n1,0.68,3.9,-2,.,1.0,2,12,4,-0.4
OC(c1ccccc1)c1nc(-c2ccc(F)c(Cl)c2)cs1 (configuration not stated),.,.,.,i,2.5,.,-66,-83,-20
CCn1c(C(c2ccccc2)c2ccccc2)n[nH]c1=S,0.79,1.1,1,.,-4.3,56,.,.,.
O=C(Nc1ccon1)C1CCN(S(=O)(=O)c2cccs2)CC1,0.74,1.6,-5,.,0.1,2,.,.,.
O=C1c2cccc3c(O)ccc(c23)C(=O)N1Cc1ccccc1,0.73,-0.3,10,.,-73,-6,.,.,.
CC(=O)Nc1ccc(NC(=O)CSc2nnc(-c3ccccc3)n2Cc2ccc3c(c2)OCO3)cc1,0.67,2.5,-5,.,-0.1,-30,.,.,.
COCc1cccc(-c2csc(C(O)c3ccccc3)n2)c1 (configuration not stated),.,.,.,i,0.0,.,1,-10,-2.8
COc1ccc(C2CC(c3ccc(Cl)cc3)=NN2C(C)=O)cc1 (configuration not stated),0.61,5.8,-6,i,5.6,10,-29,-66,10
CC(=O)Nc1sc(N/N=C/c2ccc(N(C)C)cc2)nc1-c1ccc(C)cc1,.,.,11,i,0.9,.,-33*,-2.8*,-9.4*
Cc1ccc2c(Cl)c(C(=O)NC3CC3)sc2c1,0.67,1.4,-13,i,0.6,-8,5,8,1.6
COc1cccc(C(=O)NCCN2CCN(c3ccccc3)CC2)c1,0.7,4.3,-7,i,-8.3,.,8,6,0.0
COc1ccc(N(CC(=O)NCC2CCCO2)C(=O)CCC(=O)Nc2nccs2)c(OC)c1 (configuration not stated),0.65,-0.5,-9,i,1.1,-21,6,3,-0.2
CC(=O)NCC(=O)OCN1C(=O)c2ccccc2C1=O,0.69,0.9,-3,.,6.9,.,.,.,.
C=CCn1cccc(C(=O)Nc2ccc(Cl)cc2)c1=O,0.65,2.8,-10,i,-0.4,-4,-3,-9,-1.6
CCCCSc1nc2c(c(=O)[nH]c(=O)n2C)n1CCc1ccccc1,0.7,1.9,-2,i,-0.4,-13,2,5,-2.9
CC(=O)O[C@H]1[C@@H](O)[C@H](O)[C@H](Oc2c(O)c(C)c3c4c2[C@@H](C)CC[C@@H]4[C@@H](C)C[C@H]3C=C(C)C)O[C@H]1C,.,.,0,i,0.1,-5,15,4,-2.8
CC(C)NC(=O)c1ccc(OC2CSC2)cc1,0.74,-0.2,-4,.,1.3,-2,.,.,.
CC1=NOC(=O)/C1=C/c1ccc(N(C)C)cc1,0.72,6.3,.,.,.,45,.,.,.
Cc1c(C(=O)NCc2ccccn2)oc2ccc(Br)cc12,0.71,1.9,3,i,-0.9,-2,3,-1,-1.1
O=C(Nc1ccc(O)c2c(=O)cc(-c3cccc(Cl)c3)oc12)c1ccc(F)cc1,0.66,4.5,1,i,0.3,2,5,3,-0.1
Cc1cccc(CN2CCN([C@@H]3CS(=O)(=O)N[C@H]3COCc3ccccc3)CC2)c1,.,.,.,i,1.4,.,0,-6,3.8
NS(=O)(=O)c1cccc(NC(=O)COC(=O)c2ccccc2C(=O)c2ccccc2)c1,0.64,1.5,-8,i,3.5,6,-32*,-22*,2.1*
COC(=O)COc1cccc2c(=O)n(CC(=O)NCc3ccccc3)ccc12,0.7,-0.7,31,i,-1.6,-1,1,6,-1.4
Cc1cc(C)nc(SCCS(=O)Cc2ccc(Cl)cc2)n1 (configuration not stated),0.75,2.4,-1,.,3.4,-14,.,.,.
CCOC(=O)C1=C(N)n2c(s/c(=C\c3cccnc3)c2=O)=C(C(=O)OC)C1c1cccnc1 (configuration not stated),.,.,-24,.,-0.1,-8,.,.,.
Cc1ccc(N2C(=O)N(C(C)C)C(C)(C)CC2(C)O)cc1 (configuration not stated),0.66,1.1,2,i,-0.1,-18,7,2,-2.0

# Not all compounds are listed; rates above refer to the full screens.
